miR-21 reporter = qHTS Assay for Modulators of miRNAs and/orActivators of miR-21 | HeLa miR-21 FLuc reporter, luciferase, 48 h | Potency, µM (series often up to 38.3 µM), for the others: top-dose reporter change, positive = more light | 340,000 tested, under 10 active | AID 2288, 2010; active = well fitted rising curve with a large enough effect; inconclusive = small, poorly fitted or top-dose-only effect; inactive = no such curve, though single readings can be large or run the other way;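 note: % of control where 0% means no effect; miR-21 action dims this reporter so a rising signal means less miR-21 action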
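HeLa cells endogenously expressing miR-21, stably carrying CMV-driven firefly luciferase with a downstream miR-21 binding site, 2000 cells/well. Titrations up to approximately 40 uM, 48 hours; luciferase luminescence read.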
Active calls of the source: *; u = inconclusive. Some of the compounds tested; rates above refer to the full screens.

SMILES	miR-21 reporter
CC(=O)Oc1ccc(C23CC4CC(CC(C4)C2)C3)cc1C(=O)O	0.9%
Cc1ccc(NC(=O)c2cc(S(=O)(=O)N(C)C3CCCCC3)ccc2F)cc1C	8.6%
COc1ccc(-c2nsc(NC(=O)COc3ccc(C)c(C)c3)n2)cc1	4.4%
CC(C)Oc1ccc(CNC(=O)c2sc3ncccc3c2-n2cccc2)cc1	1.6%
CCc1ccc(NC(=O)CCc2c(C)nc3nc(-c4cc(OC)cc(OC)c4)nn3c2C)cc1	1.3%
CCOCCCNC(=O)C(c1ccccc1)N1Cc2ccccc2C1=O (stereo unspecified)	-3.4%
CC(=O)c1ccc(NC(=O)c2noc3c2CSc2ccccc2-3)cc1	-4.4%
CC1N=C2c3ccccc3N=C(SCC(=O)NCc3ccc(Cl)cc3)N2C1=O (stereo unspecified)	1.4%
O=C(CSc1nc2ccsc2c(=O)n1Cc1ccc(F)cc1)NCc1ccc(Cl)cc1	-2.1%
CCOc1ccc(OCC)c(NC(=O)C2CCCN(S(=O)(=O)c3ccc4c(c3)oc(=O)n4C)C2)c1 (stereo unspecified)	-0.9%
CC(=O)c1cccc(NC(=O)Cn2nc(C)n3cccc3c2=O)c1	-8.2%
CCOc1ccccc1-c1noc(CCCC(=O)Nc2cccc(C(F)(F)F)c2)n1	12.8%
CC1CCc2onc(C(=O)N3CCN(c4ccc(Cl)cc4)CC3)c2C1 (stereo unspecified)	6.8%
CCn1c2c(c(=O)n3ncc(C(=O)Nc4ccc(F)c(Cl)c4)c13)CN(Cc1ccc(OC)cc1)CC2	4.6%
O=C(Cn1ncc2ccc(Cl)cc21)NCc1ccc(F)cc1	-4.4%
CCOc1ccc(-c2nnc(SCC(=O)NC3CCCC3)nc2-c2ccc(OCC)c(OC)c2)cc1OC	4.0%
COC(=O)c1c(Oc2ccc(C(C)=O)cc2)nnc(-c2ccccc2)c1-c1ccccc1	15.0%
CCc1ccccc1-n1c2c(cc(-c3nc(-c4ccc(Cl)cc4)cs3)c1=O)C(=O)CC(C)(C)C2	-4.8%
CCOC(=O)c1[nH]c(C)c(CCC(=O)NCc2cccc(C)c2)c1C	-3.3%
Cc1ccc(NS(=O)(=O)c2ccc(-n3cccn3)cc2)cc1Cl	-1.6%
CCc1ccc(-n2c(=O)c3ccccc3n(CC(=O)NCCc3ccc(OC)c(OC)c3)c2=O)cc1	-1.7%
Cc1oc(C)c2c(=O)cc(-c3ccc4c(c3)OCO4)cc(OC(=O)c3cccc(Cl)c3)c12	-0.9%
Cc1cccc(Cn2c(SCc3ccc(C(=O)NCc4ccccc4)cc3)nc3cccnc32)c1	22.5%
CCCCn1c(=O)c2oc3ccccc3c2n(CC(=O)Nc2cccc(Cl)c2C)c1=O	1.8%
O=C(Cn1ncc2c3ccccc3n(Cc3cccc(Cl)c3)c2c1=O)Nc1ccc(F)cc1F	1.5%
CC1=C(c2ccc(Cl)cc2)S(=O)(=O)N=C1N1CCC(C(=O)NCc2ccccc2F)CC1	14.5%
CCOc1ccc(CNC(=O)c2ccc3c(c2)sc2nc(-c4ccccc4)cn23)cc1	0.8%
CCN(c1ccccc1)c1nnc(NC(=O)Nc2ccc(C)cc2)s1	-17.0%
CCc1ccc(-c2cc(C)no2)cc1S(=O)(=O)N1CCN(c2cccc(Cl)c2)CC1	24.2%
Cc1nn(CC(=O)NCc2ccco2)c(=O)c2nn(-c3ccccc3)c(C)c12	-1.4%
Cc1ccc(Cl)cc1NC(=O)c1csnn1	2.0%
O=C(CSc1nc2c(oc3ccccc32)c(=O)n1-c1ccccc1)Nc1ccc(F)c(Cl)c1	2.9%
CS(=O)(=O)c1ccc2nc(NC(=O)CS(=O)(=O)c3ccc(Cl)cc3)sc2c1	1.2%
COc1cccc(CNC(=O)CCc2c(C)nc3c(c(C)nn3-c3ccc(C)c(C)c3)c2C)c1	-0.9%
COc1ccc(NC(=O)c2cc(-c3ccccc3F)no2)cc1	4.1%
COc1ccccc1-c1c(C)nn2c(N3CCN(c4ccc(Cl)cc4)CC3)cc(C)nc12	2.7%
COc1ccc(OC)c(NC(=O)c2c(NCc3cccs3)sc3c2CCCC3)c1	16.1%
CCc1ccc(C2c3c(-c4ccccc4)n[nH]c3C(=O)N2c2ccc(C(=O)O)cc2)cc1 (stereo unspecified)	3.9%
CCN(CC)c1ccc2cc(-c3nc(-c4ccc(Cl)cc4Cl)cs3)c(=O)oc2c1	5.7%
COc1ccc(-c2cn3c(n2)sc2cc(C(=O)NCc4ccccc4OC)ccc23)cc1	7.2%

14 consecutive entries out of the list so far, for reference:
SMILES	miR-21 reporter
CC(=O)Oc1ccc(C23CC4CC(CC(C4)C2)C3)cc1C(=O)O	0.9%
Cc1ccc(NC(=O)c2cc(S(=O)(=O)N(C)C3CCCCC3)ccc2F)cc1C	8.6%
COc1ccc(-c2nsc(NC(=O)COc3ccc(C)c(C)c3)n2)cc1	4.4%
CC(C)Oc1ccc(CNC(=O)c2sc3ncccc3c2-n2cccc2)cc1	1.6%
CCc1ccc(NC(=O)CCc2c(C)nc3nc(-c4cc(OC)cc(OC)c4)nn3c2C)cc1	1.3%
CCOCCCNC(=O)C(c1ccccc1)N1Cc2ccccc2C1=O (stereo unspecified)	-3.4%
CC(=O)c1ccc(NC(=O)c2noc3c2CSc2ccccc2-3)cc1	-4.4%
CC1N=C2c3ccccc3N=C(SCC(=O)NCc3ccc(Cl)cc3)N2C1=O (stereo unspecified)	1.4%
O=C(CSc1nc2ccsc2c(=O)n1Cc1ccc(F)cc1)NCc1ccc(Cl)cc1	-2.1%
CCOc1ccc(OCC)c(NC(=O)C2CCCN(S(=O)(=O)c3ccc4c(c3)oc(=O)n4C)C2)c1 (stereo unspecified)	-0.9%
CC(=O)c1cccc(NC(=O)Cn2nc(C)n3cccc3c2=O)c1	-8.2%
CCOc1ccccc1-c1noc(CCCC(=O)Nc2cccc(C(F)(F)F)c2)n1	12.8%
CC1CCc2onc(C(=O)N3CCN(c4ccc(Cl)cc4)CC3)c2C1 (stereo unspecified)	6.8%
CCn1c2c(c(=O)n3ncc(C(=O)Nc4ccc(F)c(Cl)c4)c13)CN(Cc1ccc(OC)cc1)CC2	4.6%

Going on with the list.
SMILES	miR-21 reporter
CCOc1ccc(/C=C(\C#N)c2nc3ccccc3c(=O)[nH]2)cc1OC	-2.5%
CN1C(=O)c2ccccc2Sc2ccc(NC(=O)NCc3ccccc3Br)cc21	-1.5%
CCOC(=O)c1cc(-c2ccccc2)n(CC(=O)NCc2ccc(C)cc2)c1C	0.7%
O=C(c1ccccc1F)N1c2nc(-c3ccco3)nn2C2(CCCCC2)[C@@H]2CCCC[C@@H]21	5.7%
Cn1c(=O)c2c(SCC(=O)N3CCc4ccccc43)nc(-c3ccc(Cl)cc3)nc2n(C)c1=O	-2.4%
COC(=O)c1c(-c2cccs2)csc1NC(=O)c1cc(OC)c(OC)c(OC)c1	11.4%
CCN(CC)S(=O)(=O)c1ccc2c(c1)N(CC(=O)N1CCN(c3cccc(C(F)(F)F)c3)CC1)C(=O)CO2	8.9%
Cc1ccc(C)n1-c1nnc(N2CCCC(C(=O)NCc3cccc(F)c3)C2)s1 (stereo unspecified)	1.3%
COc1ccc(S(=O)(=O)N2CCC(C(=O)Nc3ccc(Oc4ccccc4)cc3)CC2)cc1OC	8.3%
Cc1cccc(-c2nc(SCC(=O)Nc3cccc(C(F)(F)F)c3)n3[nH]c(=O)cc3n2)c1	2.2%
CCN(C(=O)CCn1cnc2onc(-c3ccc(F)cc3)c2c1=O)c1ccc(OC)cc1	u
CCOc1ccc(CCNC(=O)CN2C(=O)COc3ccc(S(=O)(=O)N4CCCCCC4)cc32)cc1	10.5%
CCCCn1c(CNC(=O)c2ccc(OC)cc2)nnc1SCC(=O)Nc1ccccc1	-0.3%
O=C(Nc1cc(C(F)(F)F)ccc1Cl)c1cc(-c2ccc3c(c2)OCCO3)on1	-6.2%
COC(=O)c1ccc(C2c3c(oc4cc(C)c(C)cc4c3=O)C(=O)N2c2ccccn2)cc1 (stereo unspecified)	-0.3%
Cc1cc(-c2ccccc2)n2nc(-c3cccc(Br)c3)cc2n1	-10.2%
Fc1ccccc1Nc1ncnc2c1nc1n2CCCCC1	-32.6%
CCNc1nc(NC(C)(C)C)nc(Oc2ccc(=O)n(C)n2)n1	-5.0%
COc1ccc(C(=O)Nc2ccc(N3CCOCC3)c(C(F)(F)F)c2)cc1OC	u
COc1cccc(-n2c(=O)c3c(C)c(C)sc3n(CC(=O)NCCc3ccc(OC)c(OC)c3)c2=O)c1	-0.9%
COc1cc(C2NC(=O)N(C)C3=C2C(=O)N(c2ccccc2)C3)ccc1O (stereo unspecified)	-11.7%
COc1cccc(C(=O)N(Cc2nc(-c3ccc(Cl)cc3)no2)C(C)C)c1OC	3.2%
CC(C)Cn1c(-c2ccc(S(=O)(=O)N3CCOCC3)cc2)csc1=Nc1cc(Cl)ccc1Cl	-1.8%
O=C(CSc1ccccc1)NCc1ccc2c(c1)CCN2C(=O)c1ccc(F)cc1	27.1%
CCOc1ccc(-c2cc3c(=O)n(Cc4nc(-c5cccc(OC)c5OC)oc4C)ccn3n2)cc1Cl	2.0%
O=c1c2oc3ccccc3c2n(Cc2ccccc2)c(=O)n1Cc1ccco1	-1.9%
CCc1ccc(CNC(=O)C(CC)n2nc(C)c3c(C)n(-c4ccccc4)nc3c2=O)cc1 (stereo unspecified)	u
COc1ccc(CNC(=O)C2=C(C)C(=O)OC23CCCCC3)cc1	-5.1%
CCC1CN(C(=O)N2CCC(C(=O)NCCN(CC)CC)CC2)c2cc(C)ccc2O1 (stereo unspecified)	25.1%
COCCCNC(=O)C1CCN(Cc2nc(-c3ccc(OC)c(OC)c3)oc2C)CC1	-1.1%
CCCCCSc1ncnc2c1sc1nc(N3CCOCC3)c3c(c12)CCCC3	7.4%
Cc1sc2c(c1C)c(=O)n(CCc1ccccc1)c(=O)n2Cc1cccc(F)c1	-3.0%
CCn1cc(C(=O)N2CCN(c3ccccc3OC)CC2)c(=O)c2cc(S(=O)(=O)N3CCCCC3)ccc21	-1.3%
O=C(COCc1cc(-c2cccs2)on1)N1CCN(c2cccc(Cl)c2)CC1	u
COc1ccccc1-n1c(/C=C/c2c(C)n(C)c3ccccc23)nc2ccccc2c1=O	20.0%
O=C(CSc1nc2c([nH]c3ccccc32)c(=O)n1-c1ccc(F)cc1)N1CCCc2ccccc21	-10.7%
COc1ccc(OC)c(S(=O)(=O)N2CC=C(c3c(C)n(CC(=O)N4CCCC4)c4ccccc34)CC2)c1	9.8%
Cc1cc(Nc2ccc(F)cc2F)nc(-n2nc(C)cc2C)n1	29.5%
CCOC(=O)c1ccc2c(c1)N(CC(=O)Nc1ccc(C)cc1C)C(=O)c1ccccc1S2	-6.3%
COCCCNC(=O)c1nn(-c2ccc(C)cc2)nc1CO	-1.3%
Cc1oc(-c2ccc(C(=O)NCc3ccccc3)cc2)nc1CN1CCc2ccccc21	26.6%
CNc1ccc(-c2nc(-c3ccncc3)no2)cc1[N+](=O)[O-]	-8.0%
Cc1cccc(-c2nn3c(=O)cc(CN4CCN(C(=O)c5ccccc5Br)CC4)nc3s2)c1	-3.7%
CCOCCCN(Cc1ccco1)S(=O)(=O)c1cc2c(cc1C)NC(=O)CO2	-5.5%
O=C(Cn1nc(C(F)(F)F)c2c1CCCC2)Nc1cccc(Cl)c1	20.4%
Cc1ccc(NC(=O)Cn2nnnc2-c2ccccc2N)cc1	1.7%
CCc1nn(CC(=O)NCCCN(CC)CC)c(=O)c2cc3occc3n12	-3.4%
CCOc1ccc(C(=O)N2CCN(Cc3cc(=O)n4nc(-c5ccccc5Cl)sc4n3)CC2)cc1	-2.4%
Cc1ccc(CNC(=O)CCc2c(C)nc3nc(C)nn3c2C)cc1	-0.1%
Cc1cn2c(=O)c(S(=O)(=O)NCCc3ccccc3)c(C)nc2s1	-1.0%
New compounds follow.
SMILES	miR-21 reporter
COc1ccc(Cl)cc1S(=O)(=O)N1CCC(c2ccncc2)CC1	12.3%
CC(=O)c1ccc(N2C(=O)N(Cc3ccc(F)cc3)c3ccccc3S2(=O)=O)cc1	14.4%
CCOc1ccc(CCNC(=O)c2cnc3sc(N4CCOCC4)nn3c2=O)cc1	-0.9%
Cc1ccn2c(Nc3ccccc3)c(-c3c[nH]c4ccccc34)nc2c1	-37.2%
Cc1c(NC(=O)c2ccc(-c3ccc(F)cc3)o2)cccc1-c1nc2ncccc2o1	-11.1%
CC(=O)c1cccc(Nc2cc(C)nc3nc(-c4ccccc4C)nn23)c1	-8.4%
CCOC(=O)c1c(NC(=O)CSc2cn(CCNC(=O)c3ccc(OCC)cc3)c3ccccc23)sc2c1CCCC2	14.4%
Clc1cccc(CNc2ncnc3c2nc2n3CCCC2)c1	7.4%
CCOC(=O)c1cnc2ccc(C(=O)OC)cc2c1Nc1ccc(N2CCOCC2)cc1	u
Cc1cccc(-c2nc(CN3CCCC(C(=O)NCCc4ccc(Cl)cc4)C3)c(C)o2)c1 (stereo unspecified)	u
Cc1ccc(OCCSc2nnc(-c3cccs3)o2)cc1Cl	-1.4%
CCCn1c(=O)c2sccc2n2c(CCCC(=O)NC3CCC(C)CC3)nnc12 (stereo unspecified)	4.3%
Cc1ccc(-c2nc(S(=O)(=O)c3ccc(Cl)cc3)c(N3CCCCC3)o2)cc1	-2.0%
CN(C1CCCCC1)S(=O)(=O)c1ccc2c(c1)c(=O)c(C(=O)NCc1ccc(F)cc1)cn2C	-6.1%
COc1ccc(CCNC(=O)c2ccc3c(c2)NC(=O)C(CSCc2cc(C)ccc2C)N3)cc1OC (stereo unspecified)	-0.2%
COc1cc(OC)c(NC2(c3ccccc3)C(=O)c3ccccc3C2=O)cc1Cl	-5.9%
O=C(COc1ccccc1Cl)NCC1(N2CCOCC2)CCCCC1	-0.1%
O=C(CCS(=O)(=O)c1cc(Br)cc2c1N(C(=O)C1CC1)CC2)Nc1ccc(Br)cc1F	5.8%
COc1ccc(N(CC(=O)NCCc2cccc(C)c2)S(=O)(=O)c2c(C)nn(C)c2C)cc1	-4.0%
CC(=O)Nc1ccc(NC(=O)CSc2nccn2C)cc1	-1.5%
Cc1cccc(OCC(=O)Nc2ccc(-c3nc4cc(C)ccc4o3)c(O)c2)c1	-53.7%
